# Screening results: PubChem BioAssay, several laboratories
# Sa RN4220 lethal = kills Staphylococcus aureus RN4220. S. aureus RN4220 growth, OD600, 16 h. inhibition, % (no concentration beside the values). hit rate 0.33% among 330,000;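 active = z-score of -3 or lower and OD600 up to 0.18 on both plates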;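 note: plate controls were untreated cells for no effect and reference antibiotic for full effect; stock transfer was 100 nL into about 80 µL; one replicate is shown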
# Autofluor counter = compound fluorescence in toxin protease inhibitor counterscreen. fluorescence intensity (no concentration beside the values). AID 624483. hit rate 3.1% among 360,000. compound autofluorescence counterscreen, microsphere flow cytometry; hits give high values;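 active = at least 3 SD above the mean of all compounds, about 16000 in these data; inconclusive = too few beads counted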;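 note: 100 nL of 1 mM stock went into each well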
# BJeLR lethal = kills HRASV12-expressing BJeLR cells; inhibition, % (no concentration beside the values); hit rate 0.17% among 300,000; BJeLR (HRASV12) viability, CellTiter-Glo ATP luminescence, 48 h; reference of the scale not given here; AID 1554;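 active = replicate mean above 50%; inconclusive = above 50% but judged a plate artefact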;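 note: 50 nL library stock added to about 25 µL; numbers are from one replicate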
# PrP UTR inh = inhibition of PrP 5' UTR reporter expression. cell-based PrP 5' UTR mRNA reporter, plate reader. inhibition, % (no concentration beside the values). hit rate 0.35% among 340,000. AID 488862;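 active = every replicate at 50% or more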;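 note: 0 = median of the neutral control wells; tested in H4 reporter cells; numbers are from one replicate; inactives centre near -14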
# ugtP null kill = kills S. aureus RN4220 lacking UgtP. S. aureus RN4220 ugtP deletion, OD600 growth, 16 h; some inactives read as strong as hits. growth inhibition, % (test concentration not listed). hit rate 0.54% among 330,000. AID 1259309;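 active = z-score under -3 and OD600 up to 0.15 on both plates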;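 note: plate controls were untreated wells for no effect and antibiotic for full effect; wells of about 80 µL received 100 nL stock; the first replicate is given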
# Mtb hypoxia inh = inhibitors of hypoxia-regulated fluorescent reporter in Mycobacterium tuberculosis; M. tuberculosis hypoxia-regulated fluorescent reporter, fluorescence; fluorescence inhibition, % (test concentration not listed); hit rate 0.1% among 300,000; AID 1159583;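 active = 35 to 45% if threefold the growth effect, above 45% if 1.5-fold the growth effect; inactive = the rest, general growth blockers included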;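 note: wells of about 50 µL received 100 nL stock; 0% = vehicle wells and 100% = reference inhibitor wells; whole bacteria with a GFP reporter of the hypoxia response; strong numbers were not always called active; many hits fall short of the cut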
# Mtb hypoxia inh growth = second read-out of Mtb hypoxia inh, no call of its own (marks repeat the call); growth inhibition, %; measured here: M. tuberculosis growth (absorbance);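 0% = vehicle and 100% = reference antibiotic; read after six days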
# Active calls of the source: *; ? = inconclusive; / = not tested or not shown.
SMILES,Sa RN4220 lethal,Autofluor counter,BJeLR lethal,PrP UTR inh,ugtP null kill,Mtb hypoxia inh,Mtb hypoxia inh growth
CCOC(=O)C1=C(O)C(=O)N(Cc2cccnc2)C1c1ccc(OC)cc1 (centres undefined),12,3480,-4,-33,2,10,17
O=C(NCC(c1cccs1)N1CCOCC1)c1ccc(Cl)cc1 (centres undefined),2.4,?,-6,-6,3,0,-4
CC(C)CN(C(=O)CN1CCOCC1)c1c(N)n(CC(C)C)c(=O)[nH]c1=O,5.6,2395,-8,-22,9,7,2
Cn1c(N)c(C(=O)COC(=O)CN2C(=O)c3ccccc3C2=O)c(=O)n(C)c1=O,/,2053,7,5,/,/,/
COc1ccc(N(C(=O)CNC(=O)c2ccco2)C(C(=O)NC2CCCC2)c2ccc(C)o2)cc1 (centres undefined),1.7,3672,4,-33,3,-8,9
CSc1cccc(NC(=O)C(C)C)c1,-0.1,3422,7,-16,1,0,-3
Cc1ccc(NC(=O)c2cc(C(C)(C)C)nn2Cc2ccccc2)cc1,-11,5099,12,-17,-45,-5,-7
COc1ccc(/C=C2\SC(=O)N(CC(=O)NCCC(C)C)C2=O)cc1OC,3.7,3482,-1,6,13,15,3
CCN(CC)C(=O)[C@H]1CC(CC(=O)NCc2ccco2)C(=O)N2CCc3c([nH]c4ccc(OC)cc34)[C@]12C (some centres undefined),1.5,3454,/,-13,-1,-10,4
c1ccc(-c2noc(-c3cccc4ccccc34)n2)nc1,25,3929,-3,-26,6,/,/
COc1ccc(/C(C)=N\NC(=O)C(c2ccncc2)N2CCOCC2)cc1 (centres undefined),/,4155,-4,-7,/,/,/
O=C(O)CCC(=NNC(=O)c1ccccc1)c1cccs1,-1.0,/,/,/,3,13,-2
Cc1ccc(NC2CCCN(C(=O)CCN3CCCCO3)C2)cc1C (centres undefined),1.7,5218,-4,-18,-2,-1,17
CCOc1ccc(N=C2NC(=O)S/C2=C\c2ccc(N(C)C)cc2)cc1,12,7192,-5,-37,15,9,-4
CC(=O)CC1c2cc(C(F)(F)F)ccc2S(=O)(=O)N1c1ccccc1 (centres undefined),5.4,/,/,/,3,-2,2
COCC(=O)N1CCC(Oc2ccc(C(=O)NCc3cc(C)no3)cc2)CC1,1.7,6148,1,-19,0,-12,12
Cc1ccc(C)c(OCC(=O)Nc2cc(C(=O)O)cc(C(=O)O)c2)c1,5.6,4428,5,39,4,-1,8
Cc1nn(-c2ncc(C(F)(F)F)cc2Cl)c(=O)n1-c1ccccc1Cl,3.4,4716,-10,-5,1,4,6
O=C(Cn1ncc(Cl)c(Cl)c1=O)Nc1ccc2c(c1)OCO2,9.7,5518,/,/,-5,21,18
C#CCOc1ccccc1CNC1CCN(Cc2ccccc2)CC1,0.9,4663,2,-15,10,6,-8
COC1OC2COC(c3ccccc3)OC2C2OC12 (centres undefined),2.3,4013,/,-21,-1,6,-4
CCCCCCN1C(=O)CC(NC(=O)OCC2c3ccccc3-c3ccccc32)C/C=C\C1C(C)C (centres undefined),-3.7,3690,/,-18,0,1,1
Cn1c(=O)c2c(SCc3cccc(C(F)(F)F)c3)nc(-c3ccco3)nc2n(C)c1=O,3.8,7942,-1,-29,6,1,1
CCOC(=O)c1c(C)nc2c(c1-c1cc(OC)c(OC)c(OC)c1)C(=O)c1ccccc1-2,1.8,19026*,5,-10,5,3,8
O=C(Nc1ccccn1)NC12CC3CC(CC(C3)C1)C2,-1.7,4863,2,-2,-10,/,/

# Going on with the list.
SMILES,Sa RN4220 lethal,Autofluor counter,BJeLR lethal,PrP UTR inh,ugtP null kill,Mtb hypoxia inh,Mtb hypoxia inh growth
O=C(CCN1CCCCC1=O)NC1CCCc2c1cnn2-c1ccccc1F (centres undefined),4.1,5665,1,-14,1,4,6
Nc1ncc(Br)cc1S(=O)(=O)NCCC(=O)N1CCN(c2ccccc2)CC1,2.7,6459,0,-9,6,-2,8
O=C(NCc1cc(C(F)(F)F)cc(C(F)(F)F)c1)C1CC(c2c(Cl)cccc2Cl)=NO1 (centres undefined),8.6,3970,1,-14,26,4,6
CN1CCN(C(=O)c2ccc(CN3CCOCC3)cc2)CC1,2.3,3813,2,-15,5,4,9
CC(C)C(=O)NC(NC(=S)Nc1cccc2cccnc12)C(Cl)(Cl)Cl (centres undefined),2.8,3316,-10,-29,1,6,9
O=C(N/N=C1\CCSc2ccc(F)cc21)c1cccnc1,/,4654,2,-12,/,/,/
COc1ccc(Cc2nnc(Nc3ccc(C)cc3C)[nH]c2=O)cc1,0.2,3042,-3,-24,6,16,9
Cc1ccc(S(=O)(=O)N2CCN(C(=O)CSC(=S)N3CCCC3)CC2)c(C)c1,3.1,?,/,/,2,0,4
CC1=CC=CN2C1=NC(=O)CC2(C)C(=O)N(CC(=O)NC1CCCC1)Cc1ccccc1 (centres undefined),1.5,4322,-20,-10,8,8,-1
O=C(CSc1nc2ccccc2c(=O)[nH]1)Nc1ccc(Br)cc1,2.7,6188,0,-14,-4,-6,-9
OCCN1CNC(=S)NC1,2.7,6083,2,-19,4,-3,-2
CCOc1ccc(-n2c(Cc3cc(=O)[nH]c(=O)[nH]3)nnc2SCC)cc1,1.0,19071*,8,-13,-3,2,2
COc1ccccc1Oc1ccc(N/C=C2/CCCC2=O)cc1,-2.8,2619,-17,-28,-4,-3,7
COc1ccc(NC(=O)Nc2ccc(F)cc2F)cc1,-1.8,2644,-7,-45,4,-5,8
CCCCN(CCCC)S(=O)(=O)c1ccc(OC)c2ncccc12,1.7,3202,-12,-12,7,6,3
N#CC1=C(Nc2ccccc2)SC=C(c2ccc(Cl)c(Cl)c2)N=C1N1CCOCC1,-1.1,3612,6,4,-5,/,/
Cc1cc2c(n1-c1ccc(Br)cc1)CC(C)(C)CC2=O,23,16349*,1,-6,12,-4,-12
O=C1CC(c2ccccc2)n2nc(NC(=O)c3ccccn3)nc2N1 (centres undefined),4.9,2492,-12,-24,2,9,1
CCCCC1(C(=O)OCC)CC(CSC(=N)N)OC1=O (centres undefined),4.8,4990,-3,-21,-3,9,7
CCCC/C(=N/O)c1c(C)[nH]c2ccccc12,/,4297,8,-13,/,/,/
Cc1ccc(CN(C)CC(=O)Nc2ccc3c(c2)CCC3)cc1,1.2,4330,-13,-8,5,11,-2
Nc1ccc2c3c(cccc13)C(=O)N(c1ccccc1)C2=O,-3.8,6571,4,-4,-3,-28,-4
Cc1nc(N)nc(Cl)c1Cc1ccc(Cl)cc1,5.2,3870,-16,-9,-4,14,6
N=c1n(-c2ccccc2)c(O)cc(=O)n1-c1ccccc1,2.9,22975*,-2,-1,8,-4,-5
COc1cc(SC)ccc1C(=O)N1CCN(c2ccccc2)CC1,8.3,4772,-2,-7,4,9,-4

# Later entries
SMILES,Sa RN4220 lethal,Autofluor counter,BJeLR lethal,PrP UTR inh,ugtP null kill,Mtb hypoxia inh,Mtb hypoxia inh growth
COc1ccc(S(=O)(=O)Nc2ccccc2OC)cc1NC(=O)Cc1cccs1,2.5,2568,0,-1,0,7,4
CC(=O)Nc1ccc(NC(=O)COC(=O)c2ccccn2)cc1,-3.1,4418,4,-25,7,13,12
CC(C(=O)N1CCCC1)c1ccc([N+](=O)[O-])cc1 (centres undefined),0.2,2771,0,-22,11,16,17
COc1cc(C2C(C(C)=O)=C(O)C(=O)N2Cc2ccccc2)ccc1O (centres undefined),0.4,3974,-2,-6,1,0,6
N#C/C=C1\n2c(nc3ccccc32)OC12CCCCC2,-0.8,5874,2,2,-15,8,17
COc1ccc(C(=O)O/N=C(\C)c2ccccc2)cc1,/,3099,-4,-36,/,/,/
Cc1[nH][nH]c(=O)c1C(c1ccc(Cl)cc1)c1c(C)[nH][nH]c1=O,0.9,/,-21,-6,0,9,-3
O=S1(=O)CCC(=NNc2ccccc2)c2ccsc21,9.8,/,/,/,24,13,8
CNc1ncnc2c1cnn2C1CCCCO1 (centres undefined),2.6,3781,/,-23,4,5,4
CCN(CCn1cccn1)Cc1ccccc1OCC(O)CN1CCc2ccccc2C1 (centres undefined),3.3,5202,-1,-25,8,-10,-15
Cc1nnc(SCC(=O)Nc2ncc3c(n2)CC(C)(C)CC3=O)s1,0.1,9995,3,-3,-4,-1,15
CC(C(=O)N1CCc2ccccc21)n1cnc2c1c(=O)n(C)c(=O)n2C (centres undefined),6.3,4300,/,-19,1,-2,4
Cc1ccc(-c2nc(CS(=O)CC(=O)N3CCN(c4ccccc4)CC3)c(C)o2)cc1 (centres undefined),-0.1,6191,3,-3,-7,-7,2
O=C(NCCCN1CCOCC1)NC12CC3CC(CC(C3)C1)C2,-12,2902,10,-32,-2,9,10
Cc1cc(C)c(OCC(=O)OCC(=O)NC2CCC(C)CC2)c(C)c1 (centres undefined),3.5,?,-2,-25,6,0,9
Cn1cccc1C(=O)OCC(=O)Nc1ccc2c(c1)CCC2,5.6,4240,2,-71,-5,15,12
Cc1cc(=O)oc2ccc(OCC(=O)O)cc12,1.0,9667,-4,-2,0,7,13
CCN1C(=O)C(CC(=O)Nc2ccc(OC)cc2)N(Cc2cccnc2)C1=S (centres undefined),2.8,10462,-6,-12,-2,-3,-4
Cc1ccnc(NC(=O)c2oc3ccccc3c2C)c1,5.7,?,4,-40,-1,8,3
O=C1C2C3C=CC(C3)C2C(=O)N1CC1CCCO1 (centres undefined),7.2,20157*,/,-18,4,7,9
Cc1cccc(N2C(=NC(=O)c3ccccc3)SC3CS(=O)(=O)CC32)c1 (centres undefined),/,5391,-2,-12,/,/,/
COc1cccc2cc(C(=O)N3CCN(C/C=C/c4ccccc4)CC3)c(=O)oc12,1.1,3210,-1,-5,2,/,/
O=[N+]([O-])c1cc(-c2nc3nc4ccccc4nc3n2CCc2ccccc2)cc([N+](=O)[O-])c1,10,6899,-8,-6,7,/,/
COc1ccc(N2CCN(/C(=N\S(=O)(=O)c3ccccc3)Nc3nc(C)cc(C)n3)CC2)cc1,/,3444,6,-1,/,/,/
O=S(=O)(NCC1CCCO1)c1ccc(S(=O)(=O)N(Cc2ccc(F)cc2)Cc2ccco2)cc1 (centres undefined),5.3,2182,-10,-1,0,5,1

# The last 5 compounds of the section above open the next one:
SMILES,Sa RN4220 lethal,Autofluor counter,BJeLR lethal,PrP UTR inh,ugtP null kill,Mtb hypoxia inh,Mtb hypoxia inh growth
Cc1cccc(N2C(=NC(=O)c3ccccc3)SC3CS(=O)(=O)CC32)c1 (centres undefined),/,5391,-2,-12,/,/,/
COc1cccc2cc(C(=O)N3CCN(C/C=C/c4ccccc4)CC3)c(=O)oc12,1.1,3210,-1,-5,2,/,/
O=[N+]([O-])c1cc(-c2nc3nc4ccccc4nc3n2CCc2ccccc2)cc([N+](=O)[O-])c1,10,6899,-8,-6,7,/,/
COc1ccc(N2CCN(/C(=N\S(=O)(=O)c3ccccc3)Nc3nc(C)cc(C)n3)CC2)cc1,/,3444,6,-1,/,/,/
O=S(=O)(NCC1CCCO1)c1ccc(S(=O)(=O)N(Cc2ccc(F)cc2)Cc2ccco2)cc1 (centres undefined),5.3,2182,-10,-1,0,5,1
COCCNC(=O)c1n[nH]c2ccccc12,3.0,4066,5,-25,2,-2,6
COc1ccc(-c2cc(C(=O)NC3CCCC3)no2)cc1,6.7,5791,1,-83,-3,5,6
CC1(C)Cc2nc3nc(SCC(=O)NCCc4ccccc4)n(-c4ccccc4)c(=O)c3cc2CO1,-1.6,16362*,6,-10,3,9,7
Cc1ccccc1OCC(=O)Nc1ccc(N2CCN(C)CC2)c(Cl)c1,0.9,4132,4,-105,-2,12,12
O=C(N/N=C/c1ccccc1Br)C1CC1,/,4596,-10,-3,/,/,/
O=C(CN1CCN(Cc2ccccc2)CC1)Nc1cccc(Br)c1,0.8,3644,-9,-20,-3,6,10
O=C1c2ccc(Cl)cc2S(=O)(=O)c2cccc(C(=O)N3CCC(Cc4ccccc4)CC3)c21,-1.2,3994,/,-17,-9,18,10
O=S(=O)(c1ccccc1)c1ccc(NCc2ccco2)cc1,-0.2,11287,-5,-5,-4,3,9
Cc1nn(Cc2ccc(F)cc2)c2sc(C(=O)Nc3ccc(N4CCOCC4)cc3N3CCOCC3)cc12,2.3,2412,-1,-8,-4,-19,4
CC=C(C)C(=O)OC1c2c(ccc3ccc(=O)oc23)OC1C(C)(C)OC(C)=O (centres undefined),8.8,/,/,/,4,4,1
C=CCN1C(=O)C(O)(CC(=O)c2ccco2)c2cc(Br)ccc21 (centres undefined),13,6112,11,-3,-8,5,14

# This is a random part of the collection; about 4% have a hit in one of these screens.
